BJeLR lethal – BJeLR cell viability loss | BJeLR (HRASV12) viability, CellTiter-Glo ATP luminescence, 48 h; reference of the scale not given here | inhibition, % (concentration not given with the values) | actives 0.17% (n = 300,000) | AID 1554;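 active = replicate mean above 50%; inconclusive = above 50% but judged a plate artefact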;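 also: 50 nL library stock added to about 25 µL; numbers are from one replicate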
Bead autofluor – flagged as autofluorescent in microsphere protease counterscreen; AID 624483; actives 3.1% (n = 360,000); fluorescence intensity (test concentration not listed); compound autofluorescence counterscreen, microsphere flow cytometry; active compounds read high;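 active = at least 3 SD above the mean of all compounds, about 16000 in these data; inconclusive = too few beads counted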;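 also: 100 nL of 1 mM stock went into each well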
Mtb hypoxia rep – Mtb hypoxia fluorescent reporter inhibition. fluorescence inhibition, % (no concentration beside the values). AID 1159583. actives 0.1% (n = 300,000). M. tuberculosis hypoxia-regulated fluorescent reporter, fluorescence;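 active = 35 to 45% if threefold the growth effect, above 45% if 1.5-fold the growth effect; inactive = the rest, general growth blockers included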;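 also: wells of about 50 µL received 100 nL stock; 0% = vehicle wells and 100% = reference inhibitor wells; whole bacteria with a GFP reporter of the hypoxia response; strong numbers were not always called active; many hits fall short of the cut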
PrP 5UTR inh – suppresses PrP 5' UTR mRNA reporter expression. inhibition, % (no concentration beside the values). actives 0.35% (n = 340,000). cell-based PrP 5' UTR mRNA reporter, plate reader. AID 488862;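 active = every replicate at 50% or more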;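 also: 0 = median of the neutral control wells; tested in H4 reporter cells; numbers are from one replicate; inactives centre near -14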
ugtP null kill – kills S. aureus RN4220 lacking UgtP; S. aureus RN4220 ugtP deletion, OD600 growth, 16 h; some inactives read as strong as hits; AID 1259309; growth inhibition, % (concentration not given with the values); actives 0.54% (n = 330,000);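 active = z-score under -3 and OD600 up to 0.15 on both plates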;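 also: plate controls were untreated wells for no effect and antibiotic for full effect; wells of about 80 µL received 100 nL stock; the first replicate is given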
Sa RN4220 lethal – kills Staphylococcus aureus RN4220. S. aureus RN4220 growth, OD600, 16 h. inhibition, % (concentration not given with the values). actives 0.33% (n = 330,000). AID 1259311;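 active = z-score of -3 or lower and OD600 up to 0.18 on both plates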;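 also: plate controls were untreated cells for no effect and reference antibiotic for full effect; stock transfer was 100 nL into about 80 µL; one replicate is shown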
Mtb hypoxia rep growth – further read-out of Mtb hypoxia rep, marked with its call; growth inhibition, %; measured here: M. tuberculosis growth (absorbance);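 0% = vehicle and 100% = reference antibiotic; read after six days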
Numbers without * were called inactive; ? = inconclusive; . = no result given. Not a hit list (roughly 4% active in at least one column).

SMILES | BJeLR lethal | Bead autofluor | Mtb hypoxia rep | Mtb hypoxia rep growth | PrP 5UTR inh | ugtP null kill | Sa RN4220 lethal
Cc1nn(C)c(C)c1S(=O)(=O)N(CC(=O)Nc1nccs1)c1ccc(C(C)C)cc1 | 2 | 5829 | 3 | 1 | -22 | 4 | 4.6
COc1ccc(OCC(=O)NNC(=O)C(=O)Nc2ccccc2)cc1 | . | 3105 | -4 | -3 | -7 | 1 | 2.3
CN(C)c1cccc(C(=O)NCC(c2ccco2)N(C)C)c1 (centres undefined) | 4 | 3996 | 3 | 5 | -12 | 6 | 3.0
Cc1ccc(C2=CC(c3ccc(N(C)C)cc3)n3nnnc3N2)cc1 (centres undefined) | -4 | 5364 | 0 | 12 | -10 | -15 | -13
COc1cccc(CNC(=O)Cc2ccc(Br)cc2)c1 | 4 | 2127 | 9 | 5 | -43 | 3 | 0.5
COCCNC(=O)c1cccc(OC2CCN(Cc3ccccc3C)CC2)c1 | -4 | 3719 | 15 | 5 | -14 | 6 | 6.2
CCOc1cc2[nH]c(=O)n(CC3CCC(C(=O)NCCCOC)CC3)c(=O)c2cc1OCC (centres undefined) | 2 | 3145 | 16 | 14 | 1 | 3 | 4.1
CC1CC(C)CN(S(=O)(=O)c2ccc(NC(=O)c3ccc(=O)[nH]c3)cc2)C1 (centres undefined) | . | ? | -3 | 9 | -29 | 0 | 2.0
O=C(c1cnccn1)N(c1ccccc1)C1(C(=O)NC2CCCC2)CCCCC1 | 3 | 3500 | . | . | -11 | 1 | 1.0
CC(=O)n1cc(C=NNC(=O)c2sc(C)nc2C)c2ccccc21 | . | . | 6 | 16 | . | -6 | 8.0
Cc1cccc(Cn2c(=O)c3c(nc4n3CCN4Cc3ccco3)n(C)c2=O)c1 | -11 | 8628 | 6 | 11 | -8 | -9 | -0.5
Cc1cc(S(=O)(=O)N2CCCCC2)c(C)s1 | -7 | 6619 | 2 | 13 | -8 | 2 | 3.0
CCc1nc(SCCO)c2oc3ccccc3c2n1 | -8 | 2822 | . | . | -9 | -8 | -1.3
COCCNC(=O)c1ccc(N2CCC3(CC2)OCCO3)c([N+](=O)[O-])c1 | -2 | 2172 | 4 | 7 | -4 | -1 | 1.9
CCN(CC(=O)Nc1ccc2c(c1)OCCO2)C(=O)/C=C/c1ccc(F)cc1 | 1 | 4932 | 20 | 3 | -44 | 6 | 5.1
O=C(CN1CCN(c2ccc(F)cc2)CC1)Nc1cccc(C(F)(F)F)c1 | -7 | 2104 | . | . | -19 | -5 | -3.7
Cc1cccc(N2CCN(C(=O)CCS(=O)(=O)c3ccc4c(c3)NC(=O)CO4)CC2)c1C | -2 | 5356 | 6 | 2 | -17 | 2 | 3.3
CCN1CCc2c(C#N)c(NCc3ccccc3)nc(NCCO)c2C1 | -6 | 8663 | 9 | -1 | -31 | -7 | 5.4
Cc1cccn2c(=O)c(C=NCc3ccco3)c(Nc3ccc(SC(F)F)cc3)nc12 | -3 | 5877 | 1 | 14 | -11 | -14 | 0.5
COC(=O)N1CC(c2ccccc2)CC1=O (centres undefined) | 6 | 19692* | 8 | 9 | -15 | 0 | 5.8
CCCCCn1nc(C)c(C=NNC(=O)c2ccoc2C)c1C | . | . | 9 | 7 | . | 1 | 2.3
c1ccc(-c2sc3ccccc3c2-c2ccc(OCCN3CCCCC3)cc2)cc1 | . | 3785 | 11 | 5 | -7 | 22 | -2.8
CCSc1nnc(NC(=O)C2CCN(C(=O)c3ccc(F)cc3)CC2)s1 | . | 7699 | 7 | 3 | -27 | 5 | 0.6
O=C(CSC1=NCCN1)Nc1cccc([N+](=O)[O-])c1 | 4 | 5056 | -1 | -10 | -7 | -5 | 0.8
O=S(=O)(c1ccc(Cl)cc1)N1CCN=C1SCc1cccnc1 | 2 | 2231 | 13 | 12 | -21 | 7 | 6.1

Following part:
SMILES | BJeLR lethal | Bead autofluor | Mtb hypoxia rep | Mtb hypoxia rep growth | PrP 5UTR inh | ugtP null kill | Sa RN4220 lethal
CCC(=NNC(=O)c1c(C)nc2ccccn12)c1ccc(Cl)cc1 | . | . | -2 | 15 | . | 4 | -2.0
Nc1nc(SCC(=O)c2ccc(Oc3ccccc3)cc2)n[nH]1 | -15 | 8125 | 2 | 5 | -15 | 17 | 4.2
COc1ccc(C(=O)NCC(=O)N/N=C/c2cccc(OC(=O)c3ccco3)c2)cc1OC | 1 | 4136 | . | . | -14 | . | .
CCOC(=O)c1csc(-c2sccc2Br)n1 | 6 | 4722 | 4 | 10 | -36 | 5 | 11
Cc1cc(=O)[nH]c(NN=Cc2cccs2)n1 | . | . | 6 | 4 | . | -2 | 4.2
CO/N=C/c1cn(-c2ccc(Cl)cc2)nn1 | 6 | 2698 | . | . | -5 | . | .
Cc1ccccc1OC(C)C(=O)Nc1cccnc1 (centres undefined) | -17 | ? | -2 | -7 | 9 | 5 | 1.4
CC(C)OC(=O)CC12CN(C)CC(CC(=O)OC(C)C)(CN(C)C1)C2=O | -7 | 2565 | 5 | 11 | -6 | -5 | 1.9
CNC(=O)c1[nH]cnc1C(=O)NCC(=O)OCc1ccccc1 | 6 | 4072 | 10 | 14 | -11 | 2 | 7.3
CC1CC(C)CN(C(=O)c2ccc(Br)c(S(=O)(=O)N3CCOCC3)c2)C1 (centres undefined) | . | 8622 | 7 | 2 | -10 | 1 | 3.9
CC=C(C)C(=O)Nc1cccc(C2=NOC3(C2)CC(C(N)=O)N(C(=O)c2cc([N+](=O)[O-])cc([N+](=O)[O-])c2)C3)c1 (centres undefined) | . | . | . | . | . | 0 | 4.5
Cc1ccccc1NC(=O)CN(C)S(=O)(=O)c1cccs1 | -16 | 4438 | 9 | 4 | 5 | 3 | 2.8
COc1cc(C=O)c(Br)cc1OCC(=O)NCc1ccccc1 | -5 | 2059 | 6 | -4 | -13 | 0 | 11
O=C(/C=C/c1ccco1)N/C(=C\c1ccco1)C(=O)NCCc1nc2ccccc2[nH]1 | -2 | 2106 | -5 | -3 | -2 | -1 | 1.1
COc1cc(/C=N/N=C2/C(=O)Nc3ccccc32)ccc1O | -24 | 2156 | . | . | -30 | . | .
CCn1ccnc1CN1CCCC(C(=O)c2cc(C)c(OC)c(C)c2)C1 (centres undefined) | -13 | ? | -2 | 0 | -14 | 14 | -2.5
C[C@H](CO)N1C[C@H](C)[C@@H](CN(C)S(=O)(=O)c2cccs2)Oc2c(NS(=O)(=O)c3ccc(F)cc3)cccc2C1=O | . | 3932 | -3 | 1 | -17 | 2 | 0.2
CN(C)c1ccc(C=C2C(=O)OC(C)(C(C)(C)C)OC2=O)cc1 (centres undefined) | 0 | 2495 | -5 | 0 | 2 | -5 | 3.9
CC(=O)Nc1cc2c(cc1NC(=O)Cn1nc(-c3ccccc3F)ccc1=O)OCCO2 | 3 | 9737 | 1 | 6 | -5 | -10 | 0.8
Cc1ccc(NC(=S)N/N=C/c2c(Cl)cccc2Cl)c(C)c1 | 53* | 2382 | . | . | 39 | . | .
COc1ccc(-c2nn(CC(=O)N3CCCCC3)c(=O)c3ccccc23)cc1 | -5 | . | . | . | . | 3 | -0.9
CC(=O)Nc1ccc(-c2nn[nH]n2)cc1Cl | -2 | 3941 | 11 | 17 | -9 | 7 | 3.2
O=C(NNC(=O)c1ccc(NC(=O)c2ccccc2)cc1)c1ccc(F)cc1 | 2 | 6226 | 8 | 1 | -1 | 2 | 4.9
C=CCOc1ccc(/C=C2\SC(N)=NC2=O)cc1OC | -1 | 3665 | 20 | 9 | -10 | 1 | 4.8
COc1ccc(C(=O)N/N=C(\C)CC(=O)Nc2ccc3c(c2)OCO3)cc1 | -2 | 5772 | . | . | -20 | . | .

(cont.)
SMILES | BJeLR lethal | Bead autofluor | Mtb hypoxia rep | Mtb hypoxia rep growth | PrP 5UTR inh | ugtP null kill | Sa RN4220 lethal
CC(=O)Nc1ccc(NC(=O)COC(=O)c2c(C)nn(-c3ccccc3)c2C)cc1 | 7 | 2061 | 2 | 8 | -13 | -2 | -2.5
COc1cc(OC)c(NC(=O)CCNS(=O)(=O)c2ccc3c(c2)oc(=O)n3C)cc1Cl | -3 | 3269 | 2 | -1 | -18 | -1 | 1.8
O=C(O)c1cccc(N2C(=O)c3ccc(Oc4ccc(Cl)cc4)cc3C2=O)c1 | 13 | 4778 | 5 | 5 | -19 | 21 | 4.4
Cc1ccc(NC(=O)CCC(=O)c2ccc(Br)cc2)cc1 | -8 | 2828 | 13 | 4 | -6 | 0 | 3.1
Cc1ccccc1N1C(=O)c2ccccc2C1Nc1cccnc1 (centres undefined) | -5 | 5251 | 4 | 13 | -22 | -3 | -13
COc1cc(C=NNc2ccccc2)ccc1O | . | . | 3 | -4 | . | 9 | -2.3
O=S(=O)(NCc1csc(-c2cccnc2)n1)c1ccc(F)cc1 | 6 | 5655 | -8 | 11 | -7 | -4 | -1.1
COc1ccc(/C(C#N)=C/c2c(-c3ccc(Cl)cc3)nc3c(C)cccn23)cc1 | -6 | 4563 | . | . | 12 | 8 | -1.4
CC(C)Cn1nc(NC(=O)C2CCCO2)c2cc3ccccc3nc21 (centres undefined) | -3 | 2433 | . | . | -3 | -6 | 4.6
Cc1cc(/C=C2/NC(=O)NC2=O)c(C)n1-c1cccnc1 | -3 | 8089 | 5 | 6 | -33 | 12 | 4.6
Cc1nn(S(=O)(=O)N2CCOCC2)c(C)c1Br | 1 | 4991 | 2 | 13 | -12 | 0 | 2.3
Cc1ncc(CO)c2cc(C(=O)Nc3cccc(F)c3)c(=Nc3cccc(C(N)=O)c3)oc12 | -2 | 3772 | -1 | 9 | -11 | -3 | 2.6
COc1cccc(NC(=O)CSc2nnc(-c3cccnc3)o2)c1 | -7 | ? | 0 | -5 | -4 | 7 | 3.3
CC1CCC(C(=O)NC(C(=O)NCCN2CCC(C)CC2)C(C)C)CC1 (centres undefined) | -9 | . | 13 | 0 | -15 | -2 | 2.3
CC(C)(C)NS(=O)(=O)c1ccc(NC(=O)C2CCCO2)cc1 (centres undefined) | 6 | 3949 | 1 | -3 | -16 | 5 | 0.5
O=C(C1CCCO1)N1CCc2ccccc21 (centres undefined) | 14 | 3394 | -1 | -6 | -8 | 2 | 2.3
COc1cc(S(=O)(=O)Nc2c(C)nn(C)c2C)ccc1NC(C)=O | 10 | 6695 | 0 | -4 | 4 | 3 | 2.5
COc1ccc(O)c(/C=C2/SC(=S)N(Cc3ccccc3)C2=O)c1 | 3 | 5051 | -2 | 4 | -21 | -1 | 3.7
Cc1ccc(CN2CCC3C=CCc4cccc(c43)C2)cc1 (centres undefined) | . | . | -4 | 8 | . | 5 | 0.8
COc1cc(CN2CCN(CC3CC3)CC2CCO)cc(OC)c1 (centres undefined) | -2 | 4730 | 15 | 3 | -25 | 17 | 6.9
COc1ccc(CC(=O)Nc2nc(-c3ccncc3)cs2)cc1 | 4 | 4018 | -2 | 7 | 54 | 13 | -2.5
CCN1C(=O)N[C@@H](c2cccc(F)c2)C(C(C)=O)=C1C | 4 | 3225 | . | . | 10 | . | .
CC(=NNC(=O)NC1CCCCC1)c1ccc(Cl)s1 | . | . | 22 | 18 | . | -10 | 4.5
CCOC(=O)N1CCN(C(=O)CN(Cc2ccccc2)S(=O)(=O)c2ccc(OC)c(C)c2)CC1 | -5 | 2115 | . | . | -25 | -3 | 3.8
Cc1cc(C)n2nc(SCC#N)nc2n1 | -6 | 6392 | . | . | -5 | 3 | 1.6
CC(=O)Nc1ccccc1C(=O)OCc1ccc(C(=O)c2ccccc2)cc1 | 6 | 7658 | -2 | 1 | -5 | -4 | 3.0
COc1cccc(CNC(=O)c2ccc(S(=O)(=O)N3CCCC3)cc2)c1 | -1 | 2902 | -1 | -4 | -9 | 5 | 1.0

Fetched by compound from the list above, 5 records:
SMILES | BJeLR lethal | Bead autofluor | Mtb hypoxia rep | Mtb hypoxia rep growth | PrP 5UTR inh | ugtP null kill | Sa RN4220 lethal
O=S(=O)(NCc1csc(-c2cccnc2)n1)c1ccc(F)cc1 | 6 | 5655 | -8 | 11 | -7 | -4 | -1.1
Cc1ncc(CO)c2cc(C(=O)Nc3cccc(F)c3)c(=Nc3cccc(C(N)=O)c3)oc12 | -2 | 3772 | -1 | 9 | -11 | -3 | 2.6
COc1ccc(O)c(/C=C2/SC(=S)N(Cc3ccccc3)C2=O)c1 | 3 | 5051 | -2 | 4 | -21 | -1 | 3.7
CCN1C(=O)N[C@@H](c2cccc(F)c2)C(C(C)=O)=C1C | 4 | 3225 | . | . | 10 | . | .
COc1cc(S(=O)(=O)Nc2c(C)nn(C)c2C)ccc1NC(C)=O | 10 | 6695 | 0 | -4 | 4 | 3 | 2.5

From PubChem BioAssay
